High-throughput results from PubChem BioAssay.
Cruzain inh noDet: blocks cruzain activity in detergent-free assay; P25779; purified cruzain, Z-FR-AMC fluorescence, no detergent; Potency, µM, inactives show max response, negative = inhibition, hits mostly inhibitors; 200,000 compounds, 2.3% hits; AID 1476;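 further: plate controls were enzyme without inhibitor for no effect and buffer without enzyme for full effect; nearly all actives have a fitted effect of over 40% in size; top concentration of the series not given in the record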
Target sequence (P25779 123-467 limits assumed): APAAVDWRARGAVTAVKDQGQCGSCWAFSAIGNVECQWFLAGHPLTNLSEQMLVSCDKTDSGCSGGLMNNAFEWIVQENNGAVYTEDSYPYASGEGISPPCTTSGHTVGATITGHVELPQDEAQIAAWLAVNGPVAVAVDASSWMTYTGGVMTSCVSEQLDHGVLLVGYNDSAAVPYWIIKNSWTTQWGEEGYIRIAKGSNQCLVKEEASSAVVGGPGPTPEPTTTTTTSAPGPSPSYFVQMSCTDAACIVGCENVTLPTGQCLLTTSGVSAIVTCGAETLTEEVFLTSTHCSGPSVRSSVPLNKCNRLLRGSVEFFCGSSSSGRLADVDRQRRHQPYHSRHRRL
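Detergent-free condition (0.00005% Triton X-100) in acetate buffer pH 5.5 with DTT. 1.5 nM enzyme and compound were pre-mixed 15 min, then 2 uM Z-FR-AMC substrate added; reaction progress from fluorescence change between first and third reads (60 s).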
SARS PLP yeast: SARS-CoV PLP inhibition in yeast | 330,000 compounds, 0.19% hits | Potency, µM (series often up to 32.9 µM), without a hit: at the highest dose activity, positive = growth rescue | S. cerevisiae expressing SARS-CoV PLpro, growth rescue; control for the full effect not named in the record | AID 485353; active means well fitted rising curve with a large enough effect; inconclusive means small, poorly fitted or top-dose-only effect; inactive means no such curve, though single readings can be large or run the other way; further: 0% is about no effect; nearly all actives have a fitted effect of over 55% in size; growth read by luminescence after 48 h
MARV entry inh: inhibitors of Marburg virus binding or cell entry. Potency, µM (top dose mostly 37.8 µM), inactives show at the highest dose activity change, negative = inhibition, usual class: inhibitors. 300,000 compounds, 1.8% hits. AID 540276. Marburg virus pseudotyped entry inhibition, cell reporter; control for the full effect not named in the record; about a third of the inactives were read at about 46 µM; active = well fitted inhibition curve with a large enough effect; inconclusive = small, poorly fitted or top-dose-only effect, or effect the other way; inactive = flat fitted curve, though single readings scatter; tested in HEK293 cells; about a fifth of its hits are not listed in these tables; further: on the % scale 0 is the no-effect control and ±100 the full control effect; luciferase read-out
2A StopGo: lowers the luciferase signal of an FMDV 2A StopGo reporter. human cells with a luciferase reporter of 2A StopGo recoding; control for the full effect not named in the record. Potency, µM (top dose mostly 57.9 µM), for the others: at the highest dose signal change, negative = less light. 410,000 compounds, 1.2% hits. AID 1159524; active = well fitted falling curve with a large enough effect; inconclusive = small, poorly fitted or top-dose-only effect; inactive = no such curve, though single readings can be large or run the other way; tested in HEK293T cells; further: on the % scale 0 is the no-effect control and ±100 the full control effect; nearly all actives have a fitted effect of over 45% in size; luciferase light after 4 h
Cruzain inh Det: blocks cruzain activity in presence of Triton detergent; P25779; purified cruzain, Z-FR-AMC fluorescence, 0.01% Triton; Potency, µM, for inactives: max response, negative = inhibition, usual class: inhibitors; 200,000 compounds, 0.43% hits; AID 1478;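 further: plate controls were neutral wells for no effect and buffer without enzyme for full effect; nearly all actives have a fitted effect of over 40% in size; top concentration of the series not given in the record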
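Steps: dispense cruzain (1.5 nM final) in acetate buffer pH 5.5 with DTT and 0.01% Triton X-100; pin-transfer compounds; incubate 15 min RT; add Z-FR-AMC (2 uM final); read fluorescence every 30 s, using the 60 s intensity change.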
RE007 growth inh: less growth of the S. pombe RE007 Vpr strain; S. pombe RE007 Vpr strain, BacTiter-Glo ATP luminescence, 24 h; control for the full effect not named in the record; Potency, µM (top dose mostly 92.2 µM), for inactives: at the top dose activity change, negative = less growth; 360,000 compounds, 0.21% hits; active = well fitted falling curve with a large enough effect; inconclusive = small, poorly fitted or top-dose-only effect; inactive = no such curve, though single readings can be large or run the other way;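 further: on the % scale 0 is the no-effect control and ±100 the full control effect; nearly all actives have a fitted effect of over 50% in size; the assay follows cell death caused by Vpr and the record does not say whether a fall means rescue or toxicity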
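Fission yeast RE007 carrying one integrated HIV-1 vpr copy, seeded at OD 0.01 in PMG+AL medium with 23 nL pinned compound. Grown 24 h at 30 degrees; viability read by BacTiter-Glo luminescence after 5 min.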
NS1 function inh: influenza NS1 inhibition; S. cerevisiae slowed by influenza A NS1, growth recovery by OD600; Potency, µM (series often up to 46.1 µM), inactives show top-dose activity, positive = more growth; 270,000 compounds, 0.4% hits; active means well fitted rising curve with a large enough effect; inconclusive means small, poorly fitted or top-dose-only effect; inactive means no such curve, though single readings can be large or run the other way; further: nearly all actives have a fitted effect of over 50% in size
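Growth recovery, yeast-based: influenza A NS1 expressed in S. cerevisiae causes slow growth, and suppressors are detected by OD600. The parent strain without NS1 is used as positive control.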
Lassa entry inh: blocks Lassa virus binding to or entry into cells; 300,000 compounds, 1.2% hits; Potency, µM (series often up to 37.9 µM), for inactives: at the top dose activity change, negative = inhibition, usual class: inhibitors; Lassa virus pseudotype entry inhibition, cell reporter; control for the full effect not named in the record; active means well fitted inhibition curve with a large enough effect; inconclusive means small, poorly fitted or top-dose-only effect, or effect the other way; inactive means flat fitted curve, though single readings scatter; tested in HEK293 cells; further: on the % scale 0 is the no-effect control and ±100 the full control effect; nearly all actives have a fitted effect of over 50% in size; luciferase read-out
Active calls of the source: *; ? = inconclusive; / = no result given; [ ] = dose if it differs, or a comment. Unless noted, the call rests on the fitted dose curve; in most records, active means well fitted curve in the direction sought with a large enough effect; inconclusive means small, poorly fitted or top-dose-only effect, or another doubt; inactive means no such curve, though single readings can be large; an effect the other way counts as inactive or inconclusive. Potency means the concentration at half of the fitted maximal effect. This is a random part of the collection. About 4.7% of those tested had a hit in this group.

The line under a structure holds: MARV entry inh | Cruzain inh Det | SARS PLP yeast | Cruzain inh noDet | Lassa entry inh | NS1 function inh | RE007 growth inh | 2A StopGo
COc1ccc(C)cc1NC(=O)C1CCN(S(=O)(=O)c2ccc3[nH]c4c(c3c2)CCCCC4)CC1
 : / | -0.6% | / | 16µM* | 12%[46.1 µM] | / | / | -3%
CCOC(=O)C1CCN(C(=O)COC(=O)c2cc(-c3cccs3)nn2-c2ccccc2)CC1
 : -2%[46.1 µM] | / | -4% | / | 8% | / | 0% | -15%
O=C(CN1C(=O)CSc2ccccc21)Nc1ccc2c(c1)OCCO2
 : 2% | -2.5% | 5% | ? | -2% | -3% | -3% | /
O=C(OCCOc1ccc(Br)cc1)c1cnccn1
 : 7% | 3.7% | -3% | 0% | -4% | -14% | -18% | -7%
CCc1ccc(NC(=S)NC(=O)CC(C)C)cc1
 : 1%[46.1 µM] | -13% | ? | -11% | ? | ? | -19% | 53%[activator]
Cc1c(Cc2ccccc2)c(=O)oc2c(C)c(OCC(=O)Nc3ccc(C#N)cc3)ccc12
 : ? | -7.9% | 6% | 13µM* | 13% | 5% | 3% | -25%
O=C(CN1CCN(c2ccc(F)cc2)CC1)Nc1nccs1
 : 5%[46.1 µM] | / | 1% | / | -1%[46.1 µM] | 4% | 11% | -20%
CCOc1ccccc1C(=O)NC(C)c1ccc2c(c1)OCO2 (stereo not given)
 : ? | 0.9% | -29% | -12% | -24% | -108% | 9% | -1%
CSc1cccc(NC(=O)C2CCN(S(C)(=O)=O)CC2)c1
 : 16% | 9.6% | -4% | 1% | -3% | 0% | 8% | /
COc1ccc2oc(C(=O)OCC(=O)Nc3ccc(N4CCOCC4)cc3)c(C)c2c1
 : 16% | / | -5% | / | -2% | / | 7% | 6%
O=C(c1ccco1)N1CCN(Cc2cn[nH]c2-c2ccc(F)cc2F)CC1
 : / | / | -1% | / | / | 2% | 8% | -10%
O=C(O)c1nn(CC(=O)N2CCN(c3ccccc3)CC2)c(=O)c2ccccc12
 : 11%[46.1 µM] | / | 0% | / | 17%[46.1 µM] | 21% | 4% | -7%
Cc1ccc(C)c(-c2nn(-c3cc(N4CCN(CCO)CC4)ccc3[N+](=O)[O-])c(=O)c3ccccc23)c1
 : ? | -3.6% | -10% | ? | ? | -4% | 22% | -28%
c1ccc(C2[C@H]3CN(Cc4cccnc4)[C@H](c4ccccc4)C34CC2(c2cccnc2)C4)cc1 (stereo not given in full)
 : / | -0.4% | -12% | -12% | / | -42% | -1% | -5%
O=C(NCc1ccccn1)C1CC(c2ccc(F)cc2)=NO1 (stereo not given)
 : ? | 6.9% | -3% | 5% | -2% | -3% | 3% | 11%
CCN1CCN(CCCNC(=O)c2ccc3c(=O)n(CCc4ccccc4)c(=O)[nH]c3c2)CC1
 : ? | / | 0% | / | / | -11% | -1% | -6%
CC(C)N(C(=O)COC(=O)c1cncc(Br)c1)C(C)C
 : 20% | / | -10% | / | ? | / | -5% | -7%
COc1cc(C(=O)NCc2nnc(SCC(=O)Nc3cccc(C)c3)o2)cc(OC)c1OC
 : 4% | 4.7% | 5% | -6% | 8% | -2% | -15% | -15%
COc1ccc(NC(=O)c2cnn(-c3ccc(F)cc3F)c2C2CCN(C(=O)OC(C)(C)C)CC2)cc1Cl
 : / | -9.1% | / | -3% | ? | / | / | -2%
COc1ccc(-c2csc(-c3c(N)c(C(=O)c4ccccc4)n4ccccc34)n2)cc1OC
 : 20%[46.1 µM] | -3.4% | / | -12% | 11%[46.1 µM] | / | / | -16%
COc1ccc(CCNC(=O)c2ccc3c(c2)N(Cc2ccccc2)C(=O)c2ccccc2S3=O)cc1OC (stereo not given)
 : ? | 2.2% | / | ? | ? | / | / | -21%
O=C(Nc1ccncc1)c1cccn(Cc2ccccc2)c1=O
 : ? | / | -7% | / | -27%[46.1 µM] | / | 5% | ?
COc1ccc(CCNC(=O)Cn2cc(C(F)(F)F)cc(Cl)c2=O)cc1OC
 : -4% | -3.4% | -2% | 13% | 0% | 2% | -10% | -11%
COC(=O)c1cn(NC(=O)CCC2CCCC2)c(=O)c2ccccc12
 : 2% | -1.7% | -4% | 1% | 7% | -1% | -3% | -20%
CC1(C)Cc2nc3oc4c(=O)n(CC(=O)Nc5ccccc5)cnc4c3cc2CO1
 : 13% | 0.4% | 6% | 14% | 1% | 1% | 1% | ?
COC(=O)CC1C(=O)NCCN1C(=S)NC(=O)c1ccccc1[N+](=O)[O-] (stereo not given)
 : 17% | -0.2% | 6% | 7% | 21% | 5% | -3% | -14%
Nc1ncnc2c1ncn2-c1ccccc1Cl
 : 24% | / | / | / | -14% | / | 7% | 38%[activator]
COc1ccccc1NC(=O)Cn1cnc2c(oc3nc4c(cc32)CCCC4)c1=O
 : / | / | -2% | / | / | 5% | 7% | -10%
COCCNC(=O)[C@H]1N2C(=O)c3c(ccc(OC)c3OC)C2SC1(C)C (stereo not given in full)
 : 1%[46.1 µM] | / | -1% | / | 7%[46.1 µM] | 1% | -9% | 2%
O=C(Cc1ncc(C(F)(F)F)cc1Cl)N1CCN(c2ccccn2)CC1
 : ? | -0.7% | 0% | -3% | 4% | 14% | 8% | -11%
COc1ccc2oc(=O)c(C(=O)Nc3cccc(C(C)=O)c3)cc2c1
 : / | / | 0% | / | / | 17% | 2% | 45%[activator]
Cc1ccc(-c2sc(-c3ccccc3)nc2CC(=O)Nc2ccccc2F)cc1
 : ? | -5.9% | 6% | -11% | -14% | -2% | 2% | ?
CCC(=O)Nc1cc(=O)[nH]c2nc(-c3ccc(Cl)cc3)nn12
 : / | / | 0% | / | / | -1% | -1% | -10%
COCCCNc1nc2ccccc2nc1NS(=O)(=O)c1ccc(OC)cc1
 : 11% | / | 0% | / | 5% | -2% | -11% | 23%
COc1ccc(C(=O)NCCn2cc(SCC(=O)Nc3cc(C)on3)c3ccccc32)cc1OC
 : ? | -1.9% | -2% | 5% | -19% | 2% | 29% | -24%
COc1ccc(Br)cc1C(=O)Nc1ccc(C(=O)NCC(C)C)cc1
 : / | / | 0% | / | / | -3% | -1% | -7%
COc1cccc(NC(=O)CSC2=Nc3ccccc3N=C(c3ccc(F)cc3)C2)c1
 : / | -5.0% | / | -5% | -11%[46.1 µM] | / | / | -30%
COc1ccc(C(=O)NCCCc2ccccc2)cc1
 : ? | / | / | / | -29% | / | -11% | 11%
Cc1ccc(Nc2nnc(SCC(O)=C(C#N)c3nc4ccccc4[nH]3)s2)c(C)c1
 : ? | / | / | / | -5%[46.1 µM] | / | -10% | -11%
O=c1[nH]c2ccc([N+](=O)[O-])cc2[nH]1
 : 0%[46.1 µM] | / | / | / | 0%[46.1 µM] | / | -1% | -1%
O=C(c1ccc(CSCc2ccccc2F)o1)N1CCN(c2ccc(N3CCOCC3)nn2)CC1
 : -4% | -6.8% | -4% | ? | / | -23% | -3% | ?
NS(=O)(=O)c1cccc(NC(=O)c2cncc(Br)c2)c1
 : / | / | -1% | / | / | 4% | -5% | 6%
O=S(=O)(NCC(c1ccco1)S(=O)(=O)c1cccs1)c1ccc(Cl)cc1 (stereo not given)
 : / | -5.2% | / | -1% | -10%[46.1 µM] | / | / | 20%
COCCCNC(=O)c1ccc2c(c1)N=C(C)c1c(C)ccc(C)c1S2
 : ? | -6.6% | / | ? | ? | / | / | -25%
CSc1nnc(CNC(=O)c2ccccc2)n1-c1ccc(F)cc1
 : / | -3.1% | 3% | 1% | / | ? | -4% | 2%
Nc1ccccc1SC(C[N+](=O)[O-])c1ccccc1 (stereo not given)
 : / | / | -18% | / | / | -62% | ? | ?
COc1ccc(C(=O)Cn2c(C(=O)/C=C/c3ccccc3)nc3ccccc32)cc1
 : ? | 4.0% | 0% | ? | ? | ? | -12% | 8.9µM*
Cc1ccccc1NC(=O)c1ccccc1-c1ccccc1
 : -5%[46.1 µM] | / | -3% | / | 24%[46.1 µM] | -21% | 4% | -6%
OCCC1CN(Cc2cccc3nonc23)CCN1Cc1ccsc1 (stereo not given)
 : 4%[46.1 µM] | / | 1% | / | 1% | 1% | -1% | 1%
CC(=O)Nc1ccc(NS(=O)(=O)c2cc([N+](=O)[O-])ccc2C)cc1
 : 8%[46.1 µM] | / | 0% | / | -1% | / | -19% | 13%
COc1cccc(C2CC(c3cccc(OC)c3)n3nc(N)nc3N2)c1 (stereo not given)
 : / | -6.0% | 2% | 9% | / | 7% | -8% | -2%
CCc1ccccc1Nc1nc(N)nc(CSCC(=O)Nc2ccc(C)c(C)c2)n1
 : -17% | -0.9% | 10% | 11% | -14% | 6% | 2% | -5%
CN(Cc1ccccc1)C(=O)CSc1nnc(-c2cccc(Cl)c2)o1
 : 12%[46.1 µM] | -0.1% | / | 14% | -27%[46.1 µM] | / | / | 0%
CN1C(=O)Cc2cc(S(=O)(=O)CCC(=O)N3CCN(c4ccccc4F)CC3)ccc21
 : / | 0.1% | / | 6% | 3%[46.1 µM] | / | / | -4%
CCCCCOc1ccc(Cn2c(=O)oc3ccccc32)cc1
 : 8%[46.1 µM] | -1.3% | / | -4% | 8%[46.1 µM] | / | / | -25%
Cc1ccc2nc(SCC(=O)c3ccccc3)nc(=O)n2c1
 : ? | / | 2% | / | 10µM* | / | 9% | -2%
COc1ccccc1C(C(C(=O)c1ccccc1)N1CCOCC1)N1CCOCC1 (stereo not given)
 : 2%[46.1 µM] | / | / | / | 14%[46.1 µM] | / | -15% | 4%

Fetched one by one from the entries so far:
The line under a structure holds: MARV entry inh | Cruzain inh Det | SARS PLP yeast | Cruzain inh noDet | Lassa entry inh | NS1 function inh | RE007 growth inh | 2A StopGo
COc1ccc(C(=O)Cn2c(C(=O)/C=C/c3ccccc3)nc3ccccc32)cc1
 : ? | 4.0% | 0% | ? | ? | ? | -12% | 8.9µM*
COc1cccc(C2CC(c3cccc(OC)c3)n3nc(N)nc3N2)c1 (stereo not given)
 : / | -6.0% | 2% | 9% | / | 7% | -8% | -2%
CCCCCOc1ccc(Cn2c(=O)oc3ccccc32)cc1
 : 8%[46.1 µM] | -1.3% | / | -4% | 8%[46.1 µM] | / | / | -25%
